Vaccinia stage = blocks a specific stage of Vaccinia orthopoxvirus infection, primary screen, cell-based, single point; Vaccinia-infected cells, mCherry/Venus stage reporter fluorescence; active compounds read low; some inactives read as strong as hits; activity change (mCherry), % (no concentration beside the values); 0.01% of 89,000 active; AID 1053133, 2014;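 active = mCherry past -33% and 40 or more points under the early reporter, replicates agreeing; inconclusive = past -33% without that gap or agreement; tested in A549 cells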;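 also: scaled between vehicle wells and reference inhibitor wells; 23 nL library stock went into each well; one replicate is shown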
Vaccinia stage Venus = further read-out of Vaccinia stage, marked with its call; activity change (Venus), %; measured here: Venus reporter, other viral stage;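 negative = less Venus signal; first of two replicates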
Active calls of the source: *; ? = inconclusive; · = no result given; & = joins results of further samples. An excerpt; rates above refer to the full screens.

SMILES	Vaccinia stage	Vaccinia stage Venus
C[C@H]1CN([C@@H](C)CO)C(=O)Cc2cc(NC(=O)CCC(F)(F)F)ccc2O[C@@H]1CN(C)Cc1ccc(Cl)c(Cl)c1	-22	-21
C[C@@H]1CCCCO[C@@H](CN(C)S(=O)(=O)c2ccc(Cl)cc2)[C@H](C)CN([C@H](C)CO)C(=O)c2cc(NC(=O)NC3CCCCC3)ccc2O1	-19	-12
CO[C@@H]1CN(C)C(=O)c2ccc(NC(=O)Nc3ccc4c(c3)OCO4)cc2OC[C@H](C)NC[C@@H]1C	13	5
Cc1noc(C)c1S(=O)(=O)N(C)C[C@H]1Oc2ccc(NC(=O)Nc3ccc4c(c3)OCO4)cc2CC(=O)N([C@H](C)CO)C[C@@H]1C	4	10
COC(=O)C[C@@H]1C[C@H]2c3cc(NC(=O)Nc4ccccc4)ccc3O[C@H]2[C@H](CO)O1	-12	-3
O=C(C[C@H]1C[C@@H]2c3cc(NC(=O)Nc4ccccc4F)ccc3O[C@@H]2[C@H](CO)O1)NCc1ccc2c(c1)OCO2	-10	-6
COc1ccc(CN(C)C[C@@H]2OCCCC[C@@H](C)Oc3ccc(NC(=O)c4ccccc4)cc3C(=O)N([C@@H](C)CO)C[C@@H]2C)cc1	?	·
Cc1ccc(-c2ccc3c(c2)O[C@@H](CN(C)Cc2ccc(C(=O)O)cc2)[C@H](C)CN([C@H](C)CO)S3(=O)=O)cc1	-14	-9
CC(C)NC(=O)N(C)C[C@@H]1OCCCC[C@@H](C)Oc2ccc(NS(=O)(=O)c3cn(C)cn3)cc2C(=O)N([C@@H](C)CO)C[C@H]1C	16	22
C[C@@H]1CN([C@H](C)CO)C(=O)Cc2cc(NC(=O)NC3CCCCC3)ccc2O[C@H]1CN(C)C(=O)Nc1ccc2c(c1)OCO2	6	6

Rewritten as a markdown table: 2 of the compounds above
| smiles | Vaccinia stage | Vaccinia stage Venus |
| --- | --- | --- |
| COc1ccc(CN(C)C[C@@H]2OCCCC[C@@H](C)Oc3ccc(NC(=O)c4ccccc4)cc3C(=O)N([C@@H](C)CO)C[C@@H]2C)cc1 | ? | · |
| Cc1ccc(-c2ccc3c(c2)O[C@@H](CN(C)Cc2ccc(C(=O)O)cc2)[C@H](C)CN([C@H](C)CO)S3(=O)=O)cc1 | -14 | -9 |

(continued)
SMILES	Vaccinia stage	Vaccinia stage Venus
CC(C)NC(=O)N(C)C[C@@H]1OCCCC[C@@H](C)Oc2ccc(NC(=O)Nc3ccc(C(F)(F)F)cc3)cc2C(=O)N([C@@H](C)CO)C[C@H]1C	-24	-6
C[C@H]1CN([C@@H](C)CO)C(=O)Cc2cc(NC(=O)c3ccncc3)ccc2O[C@H]1CN(C)S(=O)(=O)c1ccccc1	-3	0
COCC(=O)N(C)C[C@H]1Oc2ncc(C#Cc3ccncc3)cc2C(=O)N([C@H](C)CO)C[C@@H]1C	5	-8
COc1ccc(S(=O)(=O)Nc2ccc3c(c2)CC(=O)N([C@@H](C)CO)C[C@H](C)[C@H](CN(C)Cc2ccc(Oc4ccccc4)cc2)O3)cc1	?	·
CCCN1C[C@H](C)[C@@H](OC)CN(C)C(=O)c2ccc(NC(=O)COC)cc2OC[C@H]1C	-13	-7
Cc1ccc(S(=O)(=O)Nc2ccc3c(c2)C(=O)N([C@H](C)CO)C[C@H](C)[C@@H](CN(C)S(=O)(=O)c2ccccc2)O3)cc1	6	4
O=C(C[C@H]1C[C@@H]2c3cc(NC(=O)C4CCOCC4)ccc3O[C@@H]2[C@H](CO)O1)NCC1CC1	11	8
C[C@@H]1CN([C@@H](C)CO)C(=O)Cc2cc(NS(=O)(=O)c3cccs3)ccc2O[C@@H]1CN(C)C(=O)Nc1ccc2c(c1)OCO2	-8	6
O=C(C[C@H]1C[C@@H]2c3cc(NS(=O)(=O)c4ccccc4)ccc3O[C@@H]2[C@@H](CO)O1)NCC(F)(F)F	10	9
CC(C)NC(=O)N1CCCCN2[C@@H](CO)[C@H](c3ccc(C#C[C@H](C)O)cc3)[C@@H]2C1	25	4
C[C@@H]1CN([C@H](C)CO)C(=O)c2cccc(NC(=O)C3CCCCC3)c2O[C@H]1CN(C)S(=O)(=O)c1ccccc1	-4	2
C[C@@H]1CN([C@@H](C)CO)C(=O)Cc2cc(NC(=O)CCCCCC(=O)Nc3ccccc3N)ccc2O[C@H]1CN(C)S(=O)(=O)c1ccc(F)cc1	6	9
C[C@@H]1CN([C@H](C)CO)S(=O)(=O)c2ccc(-c3cncnc3)cc2O[C@H]1CN(C)C(=O)Cc1ccccc1	6	3
C[C@H]1CCCCO[C@@H](CN(C)S(=O)(=O)c2cccs2)[C@@H](C)CN([C@@H](C)CO)C(=O)c2cc(NC(=O)Nc3ccc(F)cc3)ccc2O1	-11	7
C[C@@H]1CN([C@H](C)CO)C(=O)c2cccc(NC(=O)Nc3ccc(F)cc3)c2O[C@H]1CN(C)Cc1ccc(C(=O)O)cc1	7	7
CCS(=O)(=O)NCC[C@@H]1CC[C@@H](NC(=O)C2CCC2)[C@H](CO)O1	3	8
C[C@H]1CN([C@@H](C)CO)C(=O)Cc2cc(NS(=O)(=O)c3cn(C)cn3)ccc2O[C@@H]1CN(C)Cc1ccc(-c2ccccc2)cc1	10	3
Cc1noc(C)c1NC(=O)N(C)C[C@@H]1Oc2cc(C#CCC(C)C)ccc2S(=O)(=O)N([C@@H](C)CO)C[C@@H]1C	?	·
COc1cccc(NC(=O)N2[C@H](CO)[C@H](c3ccccc3)[C@H]2CNCC(C)C)c1	?	·
C[C@H](CO)N1C[C@H](C)[C@@H](CN(C)Cc2ccc(Oc3ccccc3)cc2)Oc2c(NC(=O)Nc3ccc(C(F)(F)F)cc3)cccc2C1=O	-13	-7

Pulled by compound from above (5):
SMILES	Vaccinia stage	Vaccinia stage Venus
C[C@@H]1CN([C@H](C)CO)C(=O)c2cccc(NC(=O)Nc3ccc(F)cc3)c2O[C@H]1CN(C)Cc1ccc(C(=O)O)cc1	7	7
C[C@@H]1CN([C@H](C)CO)C(=O)c2cccc(NC(=O)C3CCCCC3)c2O[C@H]1CN(C)S(=O)(=O)c1ccccc1	-4	2
C[C@H](CO)N1C[C@H](C)[C@@H](CN(C)Cc2ccc(Oc3ccccc3)cc2)Oc2c(NC(=O)Nc3ccc(C(F)(F)F)cc3)cccc2C1=O	-13	-7
C[C@@H]1CN([C@@H](C)CO)C(=O)Cc2cc(NC(=O)CCCCCC(=O)Nc3ccccc3N)ccc2O[C@H]1CN(C)S(=O)(=O)c1ccc(F)cc1	6	9
Cc1noc(C)c1NC(=O)N(C)C[C@@H]1Oc2cc(C#CCC(C)C)ccc2S(=O)(=O)N([C@@H](C)CO)C[C@@H]1C	?	·

Remaining list, next part
SMILES	Vaccinia stage	Vaccinia stage Venus
C[C@H](NC(=O)C[C@H]1CC[C@H]2[C@@H](COC[C@@H](O)CN2Cc2ccc(C(F)(F)F)cc2)O1)c1ccccc1	-15	-7
CN(C)C(=O)C[C@@H]1CC[C@H](NS(=O)(=O)c2ccccc2)[C@@H](CO)O1	-5	-8
C[C@@H]1CN([C@@H](C)CO)C(=O)c2cc(C#CC3CCCC3)cnc2O[C@@H]1CN(C)S(=O)(=O)c1cccc(F)c1	?	·
CCCNC(=O)N[C@@H]1CC[C@@H](CCn2cc(C3CC3)nn2)O[C@@H]1CO	2	5
C[C@@H]1CN([C@@H](C)CO)C(=O)c2cc(-c3ccccc3F)cnc2O[C@@H]1CN(C)C	-12	-7
C[C@@H]1CN([C@@H](C)CO)C(=O)c2cc(NC(=O)C3CCCCC3)ccc2O[C@@H](C)CCCCO[C@H]1CN(C)C(=O)CCCN(C)C	-4	-4
O=C(Nc1ccc(F)cc1)N[C@@H]1CC[C@H](CC(=O)N2CCOCC2)O[C@H]1CO	6	14
O=C(c1cnccn1)N1CC(=O)N2[C@@H](CO)[C@@H](c3ccc(-c4cccc(F)c4)cc3)[C@@H]2C1	-5	2
CN1C(=O)c2cc(NC(=O)C3CCOCC3)ccc2OC[C@@H]2O[C@H](CC(=O)NCc3ccc4c(c3)OCO4)CC[C@H]21	4	16
C[C@@H]1CN([C@H](C)CO)C(=O)c2cc(C#CCN(C)C)cnc2O[C@H]1CN(C)Cc1ccc(-c2ccccc2)cc1	?	·
CN(C)C(=O)c1ccc(-c2ccc([C@@H]3[C@@H](C#N)N(C(=O)C4CCC4)[C@H]3CO)cc2)cc1	-13	-9
COCC(=O)Nc1ccc2c(c1)OC[C@H](C)N(C(=O)Cc1ccccn1)C[C@H](C)[C@H](OC)CN(C)C2=O	0	3
CN(Cc1ccccc1F)C[C@H]1[C@@H](c2ccccc2)[C@@H](CO)N1S(C)(=O)=O	-2	1
C[C@H](O)C#Cc1ccc([C@@H]2[C@H]3CN(C(=O)c4ccncc4)CCCCN3[C@H]2CO)cc1	32	17
C[C@@H]1CN([C@@H](C)CO)C(=O)Cc2cc(NC(=O)CCN3CCOCC3)ccc2O[C@H]1CN(C)C(=O)Nc1ccc(F)cc1	14	9
CC(C)NC(=O)N[C@H]1CC[C@H](CCn2cc(-c3ccccc3)nn2)O[C@H]1CO	-6	-5
CC(=O)N1[C@@H]2Cn3c(ccc(-c4cncnc4)c3=O)[C@H]1[C@@H](C(=O)NC1Cc3ccccc3C1)[C@@H]2CO	0	-3
C[C@H](CO)N1C[C@H](C)[C@H](CN(C)C(=O)Nc2ccccc2)OCCCC[C@H](C)Oc2ccc(NC(=O)NC3CCCCC3)cc2C1=O	12	3
C[C@@H]1CCCCO[C@H](CN(C)C(=O)Nc2ccc(C(F)(F)F)cc2)[C@@H](C)CN([C@@H](C)CO)C(=O)c2cc(NC(=O)c3ccncc3)ccc2O1	?	·
COc1ccc(NC(=O)Nc2cccc3c2O[C@H](CN(C)Cc2ccc(Oc4ccccc4)cc2)[C@H](C)CN([C@H](C)CO)C3=O)cc1	-29	-23
C[C@@H]1CN([C@@H](C)CO)C(=O)c2cc(NC(=O)C3CCCCC3)ccc2O[C@@H](C)CCCCO[C@H]1CN(C)S(=O)(=O)c1ccc(F)cc1	-10	-8
CCCC(=O)Nc1ccc2c(c1)C(=O)N(C)C[C@H](OC)[C@@H](C)CN(Cc1ccccc1F)[C@@H](C)CO2	-18	-15
COc1ccc(S(=O)(=O)N(C)C[C@H]2OCCCC[C@H](C)Oc3ccc(NC(=O)NC(C)C)cc3C(=O)N([C@H](C)CO)C[C@@H]2C)cc1	6	4
CCNC(=O)C[C@@H]1C=C[C@@H](NC(=O)C2CCC2)[C@H](CO)O1	3	3
COc1ccc(CN(C)C[C@H]2OCCCC[C@H](C)Oc3ccc(NC(=O)Nc4ccc(C(F)(F)F)cc4)cc3C(=O)N([C@@H](C)CO)C[C@@H]2C)cc1	?	·
C[C@H]1CN([C@@H](C)CO)C(=O)c2cc(NC(=O)Cc3cn(C)c4ccccc34)ccc2O[C@@H]1CN(C)S(=O)(=O)c1ccc(F)cc1	-13	-13
C=CC1c2ccccc2/C=C(C(=O)OC)\C(C(=O)OC)=C/N1Cc1ccc(OC)cc1 (stereo not drawn)	4	1
O=S(=O)(N[C@H]1CC[C@@H](CCn2cc(C3(O)CCCC3)nn2)O[C@@H]1CO)c1ccccc1	-3	4
COc1ccc2c3c(n(C)c2c1)[C@H](CO)N(CC1CCCC1)CC31CCN(C(=O)CN(C)C)CC1	-21	-16
Cc1noc(C)c1NC(=O)N(C)C[C@H]1Oc2ccc(NC(=O)NC(C)C)cc2C(=O)N([C@@H](C)CO)C[C@@H]1C	16	13
C/C=C/c1cnc2c(c1)C(=O)N([C@H](C)CO)C[C@@H](C)[C@@H](CN(C)C(=O)NC1CCCC1)O2	14&11	12&2
C/C=C/c1ccc2c(c1)O[C@@H](CN(C)C(=O)c1ccccn1)[C@H](C)CN([C@@H](C)CO)S2(=O)=O	24	6
COc1ccc2c3c([nH]c2c1)[C@H](CO)N(C(=O)c1ccc(F)cc1)CC31CCN(C(=O)NC(C)C)CC1	6	4
O=C(Nc1ccccc1)[C@H]1[C@H](CO)[C@H]2Cn3c(cccc3=O)[C@H]2N1Cc1ccccc1Cl	-4	3
CO[C@H]1CN(C)C(=O)c2cc(NS(=O)(=O)c3ccccc3C)ccc2OC[C@H](C)N(C)C[C@@H]1C	-6	-6
COc1ccc2c3c(n(C)c2c1)[C@@H](CO)N(Cc1ccccc1)CC31CN(C(=O)Nc2cccc(F)c2)C1	-19	-16
C[C@H](CO)N1C[C@H](C)[C@@H](CN(C)S(=O)(=O)c2cccs2)OCCCC[C@H](C)Oc2ccc(NS(=O)(=O)c3ccc(F)cc3)cc2C1=O	?	·
C[C@@H]1CN([C@H](C)CO)S(=O)(=O)c2ccc(Br)cc2O[C@@H]1CN(C)Cc1ccccn1	4	-2
C[C@H](CO)N1C[C@H](C)[C@H](CN(C)S(=O)(=O)c2ccc(Cl)cc2)Oc2ccc(NC(=O)Nc3ccccc3)cc2C1=O	-31	-20
C[C@H](CO)N1C[C@H](C)[C@@H](CN(C)C(=O)Nc2ccc(C(F)(F)F)cc2)Oc2ccc(NC(=O)Cc3ccccc3)cc2C1=O	-3	-5
CC(C)NC(=O)Nc1cccc2c1O[C@@H](CN(C)Cc1ccc(C(F)(F)F)cc1)[C@@H](C)CN([C@@H](C)CO)C2=O	-16	-6
C/C=C/c1cnc2c(c1)C(=O)N([C@H](C)CO)C[C@@H](C)[C@@H](CN(C)C(=O)c1ccc3c(c1)OCO3)O2	8	5
C[C@H](O)C#Cc1cnc2c(c1)C(=O)N([C@@H](C)CO)C[C@H](C)[C@H](CN(C)C(=O)Nc1ccc(C(F)(F)F)cc1)O2	14	8

An excerpt from above in order of heavy-atom count, descending:
SMILES	Vaccinia stage	Vaccinia stage Venus
C[C@H](O)C#Cc1cnc2c(c1)C(=O)N([C@@H](C)CO)C[C@H](C)[C@H](CN(C)C(=O)Nc1ccc(C(F)(F)F)cc1)O2	14	8
COc1ccc2c3c([nH]c2c1)[C@H](CO)N(C(=O)c1ccc(F)cc1)CC31CCN(C(=O)NC(C)C)CC1	6	4
C/C=C/c1cnc2c(c1)C(=O)N([C@H](C)CO)C[C@@H](C)[C@@H](CN(C)C(=O)NC1CCCC1)O2	14&11	12&2
